# Tg IFNy HTS: T. gondii growth inhibition with IFN-gamma, primary screen, cell-based. Toxoplasma gondii growth in IFN-gamma-treated host cells; stronger effect = lower value; reference of the scale not given here. actives 3.8% (n = 69,000). AID 1259416, 2018. activity change, negative = inhibition, %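 (about 20 µM by stock and volumes)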;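 active means below -70%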;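 further: host cells are HeLa cells infected with Toxoplasma gondii; parasite growth read as luciferase light; one replicate is shown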
# An asterisk follows results filed as active; i = inactive; & = joins results of further samples. A portion of the library, so the mix of outcomes need not match the whole.
# Sample of the layout (4 entries):
SMILES,Tg IFNy HTS
CN1CCN2CCN(S(=O)(=O)c3ccc(-c4cnco4)s3)CC2C1=O (stereo not given),-56.6
CN(C)CC(=O)N1CCCCN2[C@H](CO)[C@@H](c3ccc(-c4cncnc4)cc3)[C@H]2C1,8.2
COc1ccccc1-c1nc(Cn2nnc(C(=O)Nc3cccc(C)c3C)c2C)c(C)o1,124.7
Cc1nn(CCO)cc1CN1CCN(S(=O)(=O)c2ccccc2)CC1,-6.6

# The whole of this part, repeating the preview:
SMILES,Tg IFNy HTS
CN1CCN2CCN(S(=O)(=O)c3ccc(-c4cnco4)s3)CC2C1=O (stereo not given),-56.6
CN(C)CC(=O)N1CCCCN2[C@H](CO)[C@@H](c3ccc(-c4cncnc4)cc3)[C@H]2C1,8.2
COc1ccccc1-c1nc(Cn2nnc(C(=O)Nc3cccc(C)c3C)c2C)c(C)o1,124.7
Cc1nn(CCO)cc1CN1CCN(S(=O)(=O)c2ccccc2)CC1,-6.6
O=C(c1cnccn1)N1CCC2(CC(=O)N(c3ccccc3)C2)C1 (stereo not given),-27.0
COCCC(=O)c1cc2c(s1)CCN2c1ccc(C)nn1,59.6
O=C(CCN1CCOCC1)Nc1ccc(F)cc1F,15.9
CC(C(=O)O)n1cc(-c2ncc[nH]2)c2ccccc21 (stereo not given),-4.4
Cc1nc(CC(=O)N2CCCC(N(C)S(=O)(=O)Cc3ccccc3)CC2)cs1 (stereo not given),43.9
CN1C(=O)c2cc(NC(=O)Nc3ccc(Cl)cc3)ccc2OC[C@@H]2O[C@@H](CC(=O)NCCN3CCCCC3)CC[C@@H]21,15.4
Cc1nnc(C(C)C)n1C1CC2CCC(C1)N2CC[C@H](NC(=O)C1CCC(F)(F)CC1)c1ccccc1 (stereo not given in full),17.5&18.0
COCCN(Cc1cccs1)C(=O)c1ccncc1Cl,3.3
CN(C)CC1COCCN(Cc2cccn2-c2ccc(Cl)cn2)C1 (stereo not given),5.4
COc1ccc(-c2cc3c(n(C)c2=O)CCN(C(=O)CCc2scnc2C)C3)c2ccc(C)nc12,-8.2
O=S(=O)(Cc1ccccc1)N1CC2CN(Cc3cccc(Cl)c3)CC2C1 (stereo not given),-21.0
Cc1ccc(NC(=O)c2c(O)c3cccnc3n(-c3ccc(F)cc3)c2=O)c(F)c1,125.0
CCN1CCN(CC(=O)N2CCOC(Cc3ccc(OC)cc3)C2)CC1 (stereo not given),4.7
COc1ccc(NC(=O)N2CCCC(C(=O)c3ccc4c5c(cccc35)CC4)C2)c(C)c1 (stereo not given),-2.5
CC(=O)Nc1ccc(CN(Cc2ccc(F)cc2)CC2CCCO2)cc1 (stereo not given),3.5
CC(=O)Nc1cccc(-c2c(C)c3ccccc3[nH]c2=O)c1,5.5
CSc1nsc(SCC(=O)Nc2ccc3c(c2)OCCO3)n1,219.3
CC(C)c1ccc(S(=O)(=O)N2C[C@@H]3OCCN(c4ncc(F)cn4)[C@H]3C2)cc1,-52.3
CCn1ncnc1C(C)NCC(=O)NCc1ccccc1F (stereo not given),-5.1
COCCC(=O)N1CCC2(COCc3c(C)nc(NCC4CC4)nc32)C1 (stereo not given),-8.4
O=C(Cc1ccccc1)Nc1nccs1,-3.8
Fc1cccc(F)c1CSc1ccccc1C1=NCCCN1,-54.4
CN(C)CC(=O)N1c2ccccc2CCc2ccc(N)cc21,20.3
CNC(=O)[C@H]1C[C@H]2CN(Cc3ccccc3)C[C@H]1O2,4.6
Cc1nc2ccccn2c1-c1ccnn1C(=O)c1ccno1,-5.9
CCOc1ccc(C)cc1-c1csc(NC(=O)c2cc[nH]c(=O)c2)n1,34.9
O=C1CCc2cc(S(=O)(=O)N3CCCc4ccccc43)cc3c2N1CCC3,0.8
COC(=O)c1cc2n(n1)CCN(C(=O)CCn1c(C)nc3ccccc31)C2,-1.5
O=C(NCc1ccc2c(c1)CCCO2)c1ccc(Oc2ncccn2)cc1,16.5
Cc1onc(C(=O)Nc2ccc3c(c2)N(S(C)(=O)=O)CC3)c1Cn1cccn1,-35.9
C=CCN(CC#Cc1ccccc1)Cc1ccncc1,4.6
COc1ccccc1-c1noc(CCC(=O)N(C)C(C)c2ccon2)n1 (stereo not given),-27.3
CSCCC(NC(=O)C1CC(=O)Nc2ccccc21)c1cc(=O)[nH]c(-c2cccnc2)n1 (stereo not given),9.1
CCOc1cccc(-c2noc(-c3nnn(Cc4nc(-c5cccc(C)c5)oc4C)c3C)n2)c1,-6.0
O=C(Nc1cccc2ccccc12)NC1CCCCC1,-93.1*
CN(C)C(=O)N1CCN(C)C(c2nnc3ccc(C(=O)N4CCCC4)cn23)C1 (stereo not given),-15.6
COc1ccc(C[C@@H]2CCc3cnnn3COC[C@H](CC(C)C)NC2=O)cc1,-21.2
CC(C)(C)c1cc(CN2CCCN3CCC[C@H]3C2)[nH]n1,-1.9
Cc1ncc(C(=O)N2CCC(c3cc4nc(C(C)C)cc(C(F)(F)F)n4n3)CC2)c(C)n1,-2.8
COc1cccc(S(=O)(=O)N2CC[C@@H]3[C@@H](CO)Nc4ccc(C#Cc5cccnc5)cc4[C@@H]32)c1,-1.8
CSc1cccc(NC(=O)Cn2c(=O)cc(-c3nc(C4CC4)no3)c3ccccc32)c1,-28.6
Cc1cc(C(=O)N(C)C2Cc3ccccc3C2)nc(C)n1,4.5
O=C(NCCc1c[nH]c2ccccc12)OCCSS(=O)(=O)O,-34.1
COc1ccccc1C1OC(=O)CC1C(=O)O (stereo not given),86.5
Cn1c(N)c(Sc2nc3ccccc3s2)c(=O)[nH]c1=O,3.7
CCCN(CCO)C(=O)CC1C(=O)NCCN1C(C)C (stereo not given),-22.7

# (continued)
SMILES,Tg IFNy HTS
O=C(c1cc(-c2cccnc2)n[nH]1)N1CCN(C(=O)c2cc3cc(Cl)ccc3[nH]2)CC1,44.1
COc1ccc2cc(CN3CCN(S(=O)(=O)N(C)C)CC3)c(=O)[nH]c2c1,3.1
O=C([C@@H]1CCO[C@@H]2CCN(Cc3ccccc3)C[C@H]21)N1CCCO1,-0.5
O=C(C1CC2(CCNCC2)CN1)N1CCOc2ccc(Cl)cc2C1 (stereo not given),81.2
COCCNC(=O)c1cn(C[C@@H]2CCCN(C(=O)c3ccccn3)C2)nn1,-25.2
Cc1cccc2c1c(-c1ccc(C(N)=O)cc1)nn2C,8.1
Cc1ccc2c(c1)CCCN2C(=O)CN(C)Cc1snnc1C,32.1
COc1ccc(-c2cn(CC[C@H]3CC[C@H](NC(=O)c4cnccn4)[C@@H](CO)O3)nn2)cc1,-23.0
Cc1cc(C)c2cc(C(=O)NCCNc3ccc(C(F)(F)F)cn3)[nH]c2c1,-43.2
Cn1nc(-c2c(-c3ccccc3)ncn2CCO)c2c(Cl)cccc21,5.2
CC1=C(C(=O)OC2CCCCC2)C(c2ccc([N+](=O)[O-])cc2)C2=C(CC(C)(C)CC2=O)N1 (stereo not given),-67.6
Cc1ccc(CN2CCc3c(COCCN(C)C)cncc3C2)s1,2.3
C=CC(=O)N1CCc2ccc(=O)n(CC3CCOCC3)c2CC1,-12.8
CN1C[C@@H]2CCN(C(=O)NC3CCCC3)CC[C@H]2S1(=O)=O,-8.8
C=C1C(=O)O[C@@H]2[C@H]3O[C@]3(C)CC/C=C(\C)CC[C@@H]12,2.1
N#C[C@@H]1[C@@H](c2ccccc2C2=CCCCC2)[C@H](CO)N1C(=O)c1ccccn1,-52.6
Cc1noc(C)c1NC(=O)Nc1cccc2c1O[C@@H](CN(C)Cc1ccc(C(=O)Nc3ccccc3N)cc1)[C@H](C)CN([C@H](C)CO)C2=O,10.2
Cc1nc(-c2ccc(Oc3ccc(C(F)(F)F)cn3)cc2)no1,12.4
Cc1ccc2c(c1)C(=O)N(CC(=O)Nc1cn[nH]c1C)CC1(CCOCC1)O2,-16.6
C=CCNC(=O)c1cc([N+](=O)[O-])cc2c(=O)[nH]c(Nc3ccc(Cl)c(Cl)c3)nc12,7.8&5.3
O=C(c1cc(CN2CCOCC2)on1)N1CCCCC1CCc1cccs1 (stereo not given),-47.2
CCC(c1ccccc1)c1c(O)c2ccccc2oc1=O (stereo not given),11.0
Cc1noc(C)c1NC(=O)N(C)C[C@H]1Oc2cc(C#CCN(C)C)ccc2S(=O)(=O)N([C@H](C)CO)C[C@@H]1C,50.2
CCOc1ccccc1N(Cc1nc(-c2ccc(C)cc2)oc1C)S(=O)(=O)c1cccs1,-47.0
C=CC(=O)N1CCCC(c2nc(CCNC(=O)C3CC3)cs2)C1 (stereo not given),-2.2
Cc1cccc(C(NC(=O)CCN2CCCCO2)c2cccs2)c1 (stereo not given),2.5
CCc1ccc(NC(=O)N2CCN(Cc3nc(-c4cccc(Cl)c4)oc3C)CC2)cc1,2.4
COc1ccc(C2CC(c3ccc(OC)cc3)n3ncnc3N2C(C)=O)cc1 (stereo not given),22.9
Cc1cccc(C[C@H]2CN(C3CCOCC3)CC[C@H]2OCC2CC2)c1,-16.6
O=C(Cn1ncc2c(N3CCCCCC3)ncnc21)NCc1cccc(Br)c1,-22.6
Cc1nc(-c2cccc(F)c2)sc1CCNC(=O)c1c(F)cccc1F,32.9
Cc1cc2nc(C(C)NC(=O)c3c(-c4cccnc4)noc3C)cc(=O)n2[nH]1 (stereo not given),i
O=C(O)CSc1nnc(-c2cccnc2)n1-c1ccccc1C(F)(F)F,7.1
O=C(NCCC1COc2ccccc2O1)c1ccc(-c2cccnc2)nc1 (stereo not given),-2.5
O=C(Cn1c(-c2cscn2)nc2ccccc21)Nc1ccc(Cl)cc1,6.4
CC(OCc1ccccc1)C(NC(=O)OC(C)(C)C)C(N)=O (stereo not given),1.0
CN(Cc1cnc(N2CCOCC2)nc1)Cc1cccc2ncccc12,2.7
O=C(Nc1ccc(F)cc1)N1C[C@@H]2N[C@H](C1)C2c1ccc(/C=C/c2ccccc2)cc1 (stereo not given in full),-42.9
Cc1c(Cl)cccc1NC(=O)N1CCC2(CC1)Nc1cc(F)ccc1-n1cccc12,106.1
C=CCN(Cc1ccco1)Cc1cc2ccccc2n(C)c1=O,9.6
CCn1nc(C)c(CCNC(=O)c2cccc(C3CCNC3)c2)c1C (stereo not given),4.7
CCn1ncnc1-c1c(-c2ccccc2)ncn1CCCN1CCCC1=O,1.7
CCc1cn[nH]c1C1CCN(C(=O)c2cc3ncc(CCO)cn3n2)CC1,-51.0
O=C(Nc1nc2ccccc2s1)c1ccc(F)cc1,400.9
CC(=O)N1[C@H](C(=O)NCc2ccccc2Cl)[C@@H](CO)[C@@H]2Cn3c(ccc(-c4cncnc4)c3=O)[C@@H]21,-2.7
Cc1cc(NC(=O)CCC2CCCC2)n(-c2ncnc3c2cnn3-c2ccc(Cl)cc2)n1,21.2
COc1cc(O)ccc1C(C)=O,2.8
COc1cccc(CNC(=O)CCC2Nc3c4ccccc4nc(=S)n3C2=O)c1 (stereo not given),4.3
Cn1cnc(CCNC(=O)[C@H]2[C@H](CO)[C@H]3Cn4c(cccc4=O)[C@H]3N2C(=O)Nc2ccccc2)c1,5.0
COc1ccccc1CNC(=O)CN1C(=O)CCc2cc(S(=O)(=O)N3CCOCC3)ccc21,22.1

# 3 compounds already listed, arranged by heavy-atom count, falling:
SMILES,Tg IFNy HTS
COC(=O)c1cc2n(n1)CCN(C(=O)CCn1c(C)nc3ccccc31)C2,-1.5
O=C(O)CSc1nnc(-c2cccnc2)n1-c1ccccc1C(F)(F)F,7.1
CCC(c1ccccc1)c1c(O)c2ccccc2oc1=O (stereo not given),11.0

# Following part:
SMILES,Tg IFNy HTS
c1ccc(C(NCCNC(c2ccccc2)c2ccccc2)c2ccccc2)cc1,-51.2&-45.2
COc1ccc(NC(=O)c2ccoc2C)cc1Cl,61.4
Cc1cc(-c2cnc(NCc3cccs3)nc2C(C)C)on1,-1.4
COc1cccc(C(=O)NCCc2sc(-c3ccc(F)cc3)nc2C)c1,0.8
Cc1nnc([C@H]2CO[C@H]3CN(C(=O)c4sccc4C)C[C@H]32)o1,8.1
O=C(CCCOc1ccc(Cl)cc1Cl)NCCc1nc2ccccc2[nH]1,-34.9
CC(C)CCN1Cc2ccccc2C2(CCN(C(=O)c3ccco3)CC2)C1,-38.9
CC(O)(COc1ccccc1)c1ccc2c(c1)CN(Cc1ccccn1)CCO2 (stereo not given),1.8
Cc1ccsc1CNc1ccc(C(=O)N(C)Cc2cc(C(C)C)on2)cc1,-26.4
CC1(C)C(=O)NC(=O)N1CC(=O)N1CCCC(CCc2ccc(F)cc2)C1 (stereo not given),1.9
CCc1csc(-c2cccc(C(=O)N3CCCC3)c2)n1,-5.4
CNC(=O)NCC1CCC2(CCN(Cc3ccccc3)CC2)CO1 (stereo not given),-30.4
CC(C)CCNC(=O)Cn1ncc2c(N3CCCCCC3)ncnc21,148.1
CCCN1CCN(C(=O)c2ccc(C)s2)CC(Cc2ccc(-c3cccnc3)cc2)C1=O (stereo not given),-33.9
Cc1ccccc1-c1ccc([C@H]2[C@@H](CO)N3CCCCN(S(=O)(=O)Cc4ccccc4)C[C@@H]23)cc1,-46.0
Cn1cnnc1Sc1ccc(CN2CCOc3ccc(C4=Cc5ccccc5C4)cc3C2)o1,15.9
N#Cc1c(N2CCCC2)ccc(Br)c1Cl,-42.0
CC1=C(C(=O)Nc2ccc(C)c(C)c2)C2(CCN(C(C)C)CC2)OC1=O,60.2
NC(=O)c1cnc2n1CCN(C(=O)CN1CCC(c3ccccc3)C1)C2 (stereo not given),4.7
CN(C)CCCOc1cccc(C(=O)O)c1,-14.5

# 4 successive records from above:
SMILES,Tg IFNy HTS
N#Cc1c(N2CCCC2)ccc(Br)c1Cl,-42.0
CC1=C(C(=O)Nc2ccc(C)c(C)c2)C2(CCN(C(C)C)CC2)OC1=O,60.2
NC(=O)c1cnc2n1CCN(C(=O)CN1CCC(c3ccccc3)C1)C2 (stereo not given),4.7
CN(C)CCCOc1cccc(C(=O)O)c1,-14.5

# Carrying on:
SMILES,Tg IFNy HTS
Cc1cccc(-n2cc(CN3CCCN(C(=O)C4CCC4)CC3)cn2)c1,1.4
O=C(NC1CCCCNC1=O)c1cn(S(=O)(=O)c2ccccc2)c2ccccc12 (stereo not given),-40.5
Cc1cc2nc(CC(NC(=O)c3ccncc3C)c3ccccc3)cc(=O)n2[nH]1 (stereo not given),-7.0
CN(C)CC(=O)N[C@@H]1C=C[C@@H](CC(=O)NCc2ccc(Cl)cc2)O[C@H]1CO,-37.4
Cc1ccc(C(=O)Nc2ccc(NC(=O)c3oc(C)nc3C)cc2)o1,93.1

# High-throughput results deposited in PubChem BioAssay by Broad Institute.
